From PubChem BioAssay
Mtb hypoxia inh: reduces hypoxia-regulated biosensor signal in M. tuberculosis; M. tuberculosis hypoxia-regulated fluorescent reporter, fluorescence; fluorescence inhibition, % (concentration not given with the values); 0.1% of 300,000 active;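 active = 35 to 45% if threefold the growth effect, above 45% if 1.5-fold the growth effect; inactive = the rest, general growth blockers included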;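 also: wells of about 50 µL received 100 nL stock; 0% = vehicle wells and 100% = reference inhibitor wells; whole bacteria with a GFP reporter of the hypoxia response; strong numbers were not always called active; many hits fall short of the cut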
Sa RN4220 lethal: S. aureus RN4220 growth inhibition; OD600, 16 h; inhibition, % (concentration not given with the values); 0.33% of 330,000 active;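 active = z-score of -3 or lower and OD600 up to 0.18 on both plates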;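 also: plate controls were untreated cells for no effect and reference antibiotic for full effect; stock transfer was 100 nL into about 80 µL; one replicate is shown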
PrP UTR inh: inhibition of PrP 5' UTR reporter expression | cell-based PrP 5' UTR mRNA reporter, plate reader | inhibition, % (no concentration beside the values) | 0.35% of 340,000 active | AID 488862;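 active = every replicate at 50% or more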;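 also: 0 = median of the neutral control wells; tested in H4 reporter cells; numbers are from one replicate; inactives centre near -14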
BJeLR viability: BJeLR cell viability loss; 0.17% of 300,000 active; BJeLR (HRASV12) viability, CellTiter-Glo ATP luminescence, 48 h; reference of the scale not given here; inhibition, % (no concentration beside the values);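 active = replicate mean above 50%; inconclusive = above 50% but judged a plate artefact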;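 also: 50 nL library stock added to about 25 µL; numbers are from one replicate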
Autofluor counter: flagged as autofluorescent in microsphere protease counterscreen; 3.1% of 360,000 active; fluorescence intensity (no concentration beside the values); AID 624483; compound autofluorescence counterscreen, microsphere flow cytometry; active compounds read high;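 active = at least 3 SD above the mean of all compounds, about 16000 in these data; inconclusive = too few beads counted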;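 also: 100 nL of 1 mM stock went into each well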
ugtP null kill: compounds lethal to S. aureus RN4220 ugtP deletion mutant | OD600 growth, 16 h; some inactives read as strong as hits | growth inhibition, % (concentration not given with the values) | 0.54% of 330,000 active | AID 1259309;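 active = z-score under -3 and OD600 up to 0.15 on both plates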;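 also: plate controls were untreated wells for no effect and antibiotic for full effect; wells of about 80 µL received 100 nL stock; the first replicate is given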
Mtb hypoxia inh growth: also measured in Mtb hypoxia inh; calls as there; growth inhibition, %; measured here: M. tuberculosis growth (absorbance);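 0% = vehicle and 100% = reference antibiotic; read after six days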
* hit, by the source's call; u = inconclusive; x = no result given; & = joins results of further samples.

Values in the order – Mtb hypoxia inh	Mtb hypoxia inh growth	Sa RN4220 lethal	PrP UTR inh	BJeLR viability	Autofluor counter	ugtP null kill
- CCc1ccccc1NC(=S)NCc1ccc2c(c1)OCO2
  -5.4	-11.6	1.3	-1.8	-2.8	10797	2.1
- COc1ccc(CCNC(=O)CCN2C(=O)[C@@H]3Cc4ccccc4CN3C2=O)cc1
  1.6	9.0	0.9	-3.0	0.0	6443	-2.2
- Cc1cccc(NC(=O)CNC(=O)CN2C(=O)NC3(CCCCC3C)C2=O)c1C (configuration not stated)
  3.7	5.4	1.7	-16.9	-1.2	5368	2.3
- O=[N+]([O-])c1ccc(S(=O)(=O)Nc2cccc(-c3ccc(N4CCCC4)nn3)c2)cc1
  2.7	-3.4	2.6	-6.2	0.4	x	4.0
- c1ccc(-c2nnc3n2CCCC3)cc1
  2.6	2.5	3.9	-9.1	-5.9	22320*	-1.9
- COc1ccc(NC(=O)/C(=C\c2ccc(F)cc2)NC(=O)c2ccco2)cc1
  -7.6	-13.8	5.5	-10.8	4.1	5635	9.3
- c1ccc2c(c1)oc1c(NCCCn3ccnc3)ncnc12
  4.8	1.4	-5.6	-13.6	-0.6	2810	-4.5
- CCOC(=O)Cc1c(C)nc2c(-c3ccccc3OC)c(C)nn2c1C
  x	x	7.0	-3.0	0.0	4352	2.0
- CCC(=O)Nc1ccc(Cl)c(NC(=S)NC(C)=O)c1
  2.2	2.5	-0.5	-12.2	3.2	2682	10.0
- CC(=O)c1cccc(N=c2scc(-c3ccc(S(=O)(=O)N4CCOCC4)cc3)n2CCO)c1
  -1.2	7.1	4.8	-15.8	7.4	2568	-4.4
- O=C(O)/C(=C\c1ccc(F)cc1)c1ccc(-c2ccccc2)cc1
  14.3	5.3	10.0	-15.4	2.2	4234	3.2
- CCn1ccnc1[C@@H]1C[C@H]2CN(c3ccccc3OC)C(=O)[C@]23CCCN13
  2.5	15.9	4.4	-9.2	-2.6	4066	0.5
- O=C(c1cc(-c2cccc(Br)c2)nc2ccccc12)N1CCCC1
  3.2	1.5	-0.3	-20.2	-2.8	5485	7.6
- Cc1ccc2c(c1)CCCN2C(=O)c1cc(C)on1
  9.8	2.0	1.7	-22.1	-14.2	4830	12.1
- CC(ON=Cc1ccccc1OC(F)F)C(=O)Nc1cccc(S(=O)(=O)N2CCOCC2)c1 (configuration not stated)
  6.8	4.2	3.0	x	x	x	4.9

Reprinted at random: two compounds from above.
Values in the order – Mtb hypoxia inh	Mtb hypoxia inh growth	Sa RN4220 lethal	PrP UTR inh	BJeLR viability	Autofluor counter	ugtP null kill
- CCn1ccnc1[C@@H]1C[C@H]2CN(c3ccccc3OC)C(=O)[C@]23CCCN13
  2.5	15.9	4.4	-9.2	-2.6	4066	0.5
- COc1ccc(CCNC(=O)CCN2C(=O)[C@@H]3Cc4ccccc4CN3C2=O)cc1
  1.6	9.0	0.9	-3.0	0.0	6443	-2.2

Remaining list, next part
Values in the order – Mtb hypoxia inh	Mtb hypoxia inh growth	Sa RN4220 lethal	PrP UTR inh	BJeLR viability	Autofluor counter	ugtP null kill
- COC(=O)c1ccc(CS(=O)(=O)c2ccc(C)cc2)cc1
  8.2	7.4	5.2	-33.2	5.7	21233*	0.6
- O=C(NCC1CCCO1)C1CCC(N2C(=O)c3ccccc3C2=O)CC1 (configuration not stated)
  16.2	10.5	6.9	-5.0	0.4	7532	15.7
- O=C(NCCC(=O)N1CCCCCCC1)c1ccc(Cl)cc1
  8.2	1.0	3.1	-31.9	4.2	5675	7.9
- NC(=O)c1nsc(C(=O)N(c2ccccc2)C(C(=O)NCc2ccc(F)cc2)c2ccc(O)cc2)c1N (configuration not stated)
  4.1	4.1	6.2	-18.9	-2.5	4198	-6.6
- CCN(Cc1ccc2c(c1)OCCO2)C(=O)CN1C(=O)NC2(CCc3ccccc32)C1=O (configuration not stated)
  9.3	9.5	3.1	-6.1	x	3427	5.8
- O=C(CN1C(=O)NC2(CCCCCCC2)C1=O)Nc1ccc(OC(F)F)cc1
  3.8	9.5	0.7	-29.3	x	u	2.2
- COC(=O)c1cc(-c2cccc([N+](=O)[O-])c2)c2c(=O)n(C)c(=O)n(C)c2n1
  -2.3	0.8	0.2	-16.2	-3.0	4044	-1.3
- CC1(C)CC(C)(c2ccc(O)cc2O)N(c2cccc(Cl)c2)C(=S)N1 (configuration not stated)
  x	x	3.1	-19.7	0.4	6279	-4.8
- Cn1c(=O)c2c(nc(N3CCNCC3)n2Cc2ccccc2Cl)n(C)c1=O
  -6.9	0.2	0.6	-16.3	-0.5	2687	1.8
- CCn1cc(/C=C(\NC(=O)c2cc(OC)c(OC)c(OC)c2)C(=O)NCCCN2CCOCC2)c2ccccc21
  3.9	3.8	4.7	-12.9	-7.6	5438	6.2
- CCN(CC)C(=O)N1CCN(C(=O)N(CC)CC)CC1
  -1.1	3.2	2.2	-26.1	3.2	2240	3.2
- O=S(=O)(/N=C(/Sc1ccccc1)c1ccccc1)c1ccccc1
  x	x	x	-15.7	-3.0	4394	x
- Cc1onc(-c2c(Cl)cccc2Cl)c1COC(=O)c1ccc(Cl)cc1[N+](=O)[O-]
  6.0	5.9	9.1	-4.6	-10.5	3150	58.5
- CCC(=O)Nc1ccc2oc(-c3cccc(C)c3)nc2c1
  15.1	13.1	-1.5	-61.6	x	3186	3.6
- Cc1ccc(NC(=O)CCNS(=O)(=O)c2ccc3[nH]c(=O)oc3c2)cc1F
  8.1	2.4	2.5	0.3	2.2	5379	3.2
- CCCCN([C@H](CO)C(C)C)S(=O)(=O)c1ccccc1Br
  1.8	7.0	6.1	-15.9	x	3723	0.8
- O=C(NN=Cc1ccccc1O)/C(=C/c1ccccc1)CCO
  2.9	-3.5	5.9	x	x	x	-4.0
- CCOC(=O)c1ccc(NC(=O)Nc2ccc(OC)c(OC)c2)cc1
  -11.5	8.9	4.3	-1.3	4.1	3930	-9.6
- Nc1ncnc(SCc2c(F)cccc2Cl)n1
  -7.5	6.4	5.6	-12.5	-2.9	4248	15.9
- CCCS(=O)(=O)c1nc(S(=O)(=O)c2ccc(C)cc2)c(N2CCCC(C)C2)s1 (configuration not stated)
  -6.7	-5.0	-0.1	-2.5	-11.1	6308	1.0
- Cc1ccc2sc(NNC(=O)c3ccc4c(c3)OCCO4)nc2c1C
  8.1	4.3	-2.5	-15.5	5.5	4400	10.4
- CCOC(=O)CSc1nc2ccccc2c(=O)n1CCC(=O)NCCc1ccc(OC)c(OC)c1
  -1.5	7.3	3.3	-35.8	3.4	8546	5.7
- COc1ccc(/C=C/C(=O)Nc2sc3c(c2C(=O)NCc2cccnc2)CCCC3)cc1
  -0.3	12.1	11.1	-36.2	-6.7	9609	-14.3
- Cn1cc(CNC(=O)COc2ccc(Cl)cc2Cl)cn1
  5.7	4.8	5.7	-32.5	3.4	10102	-8.9
- Cc1sc(NC(=S)NC(=O)c2cccs2)nc1-c1ccc(C(C)C)cc1
  6.1	10.1	3.3	x	x	10641	38.1
- Cn1nc(-c2ccc(OCC(=O)Nc3ccccc3)cc2)c2ccccc2c1=O
  x	x	2.3	-19.3	-5.2	6084	5.0
- O=C(NC(=S)N1CCN(Cc2ccc3c(c2)OCO3)CC1)c1ccc(Cl)cc1
  9.7	5.2	0.3	-16.1	-13.8	2060	14.7
- Cc1cc(NC(=O)CN2C(=O)NC(C)(c3ccc(OC(F)F)cc3)C2=O)no1 (configuration not stated)
  x	x	-1.5	-16.9	-5.7	2611	-3.0
- CCC(c1nnnn1C1CCCC1)N(Cc1cccs1)Cc1cc2cc(C)ccc2[nH]c1=O (configuration not stated)
  x	x	-2.1	-19.8	-27.0	4313	-25.8
- CC(NC(C)(C)C)C(=O)c1cccc(Cl)c1 (configuration not stated)
  -3.5&-13.1	0.3&-0.6	3.6&2.9	-19.2	5.2&7.9	6185	-1.9&-4.6
- O=C(NCC1CCCCC1)c1ccccc1[N+](=O)[O-]
  6.7	6.5	3.9	-0.3	0.2	4330	4.2
- COCc1c(C(=O)N/N=C\c2ccccn2)nnn1-c1nonc1N
  x	x	x	-4.2	3.6	3167	x
- Cn1c(C2CCCCC2)nc2cc(N)ccc21
  2.5	7.5	5.3	-6.9	5.7	3512	2.4
- O=C(O)C(c1ccccc1)N1C(=O)/C(=C\c2ccc(O)c(O)c2)SC1=S (configuration not stated)
  x	x	12.2	-12.7	2.8	3609	-3.0
- CC(C)(C)C(=O)NCCN1C(=O)S/C(=C\c2ccc([N+](=O)[O-])cc2)C1=O
  12.5	-1.4	4.5	-15.4	2.2	3594	2.5
- CCOc1cc(/C=N/Nc2nc(N3CCCC3)nc(N3CCCC3)n2)ccc1O
  x	x	x	8.2	-6.5	3811	x
- CCC(C)Sc1cc(-c2nc3cc(C)ccn3c2NC2CCCCC2)ccc1OC (configuration not stated)
  7.8	13.9	0.3	-12.9	x	23753*	4.4
- Cc1ccc(-c2n[nH]c(=S)c3ccccc23)cc1S(=O)(=O)NCC1CCCO1 (configuration not stated)
  1.8	-1.8	1.9	-4.6	-0.2	6307	1.3
- O=C1CCc2ccccc2O1
  x	x	1.5	-13.1	x	5170	1.7
- O=C(Nc1c(C(=O)N2CCOCC2)oc2ccccc12)c1ccccc1Cl
  4.3	-8.3	2.8	4.2	-3.6	4396	3.3
- CCN(CC)C(=O)c1cccc(NC(=O)C2=COCCO2)c1
  0.6	-1.7	2.1	-12.1	x	3058	-0.1
- Cc1ccccc1N=Nc1c(O)n(C)c2ccccc12
  2.6	-3.5	-1.2	1.3	24.7	3088	5.2
- O[C@@H]1C2CCCC1[C@]1(O)CCCCC1C2 (some centres not stated)
  x	x	9.6	-2.6	-2.5	3477	-1.7
- COc1ccccc1C1CCN(C(=S)Nc2ccc(Br)cc2)CC1
  14.3	5.9	-16.3	-27.8	6.5	4154	11.5
- O=C(O)C1C2CC3CC(C2)CC1(n1ncc(N2CCC4(CC2)OCCO4)c(Cl)c1=O)C3 (configuration not stated)
  -1.7	3.1	4.9	-30.5	23.7	7340	12.4
- O=C(C1CC1)N1CCc2cc(S(=O)(=O)N3CCCc4ccccc43)ccc21
  x	x	8.2	-12.5	3.3	4537	-0.9
- Clc1cc2c(cc1C=NNc1nc(N3CCOCC3)nc(N3CCOCC3)n1)OCO2
  10.8	2.5	1.7	x	x	x	-8.9
- COCCOCC(=O)Nc1ccc(S(=O)(=O)Nc2cc(C)nc(C)n2)cc1
  -9.2	-2.0	0.9	-4.3	2.9	3530	2.0
- O=C(C1CCN(c2nnc(-n3cccc3)s2)CC1)N1CCc2ccccc2C1
  1.9	5.2	4.2	-95.9	-2.0	4416	12.8
- CCOc1ccc(NC(=O)CS(=O)(=O)c2cn(CC)c3ccccc23)cc1
  8.5	5.7	-7.2	-15.0	-4.7	5637	-2.7
- Cc1nnn(C23CC4CC(CC(CC(=O)Nc5ccc(C)c(C)c5)(C4)C2)C3)n1
  3.3	6.5	1.6	-26.9	-20.7	8977	-4.0
- N#C/C(=C\Nc1ccccn1)S(=O)(=O)c1ccc(Cl)cc1
  11.6	-5.5	-0.1	-18.8	6.1	6350	-15.8
- Cc1nn(C)c(C(=O)NNC(=S)NC2CCCCC2)c1Cl
  7.1	3.9	9.5	-4.9	6.6	2127	6.7
- CCCCN(C(=O)C1CCCC1)c1c(N)n(Cc2ccccc2)c(=O)[nH]c1=O
  4.2	5.7	1.8	-12.2	x	3790	5.3
